CapD inh = Bacillus anthracis CapD inhibitors, primary screen, biochemical, fluorescence intensity; CapD gamma-glutamyltranspeptidase (Bacillus anthracis Ames Ancestor); z-score (test concentration not listed); purified CapD enzyme, fluorescence intensity read-out; active compounds read low; some hits fall short of the stated cut; 140,000 tested, 0.23% active; AID 492967, 2010;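 active = z-score under -4 in either of two replicates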;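 also: stock transfer was 100 nL into about 40 µL; score is relative to mean and spread of the plate; one replicate is shown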
AID504770 = growth inhibition of E. coli YBA685, primary screen, V. cholerae RctB inhibitors; 130,000 tested, 0.27% active; AID 504770, 2011; z-score (no concentration beside the values); E. coli YBA685 rctB-dependent plasmid, OD600 growth, 3 h; active compounds read low;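 active = z-score under -2 on both plates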;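 also: wells of about 30 µL received 100 nL stock; score is relative to mean and SD of the test wells; the first replicate is given; strong numbers were not always called active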
Numbers without * were called inactive; · = not tested or not shown; & = joins results of further samples. An excerpt (hit frequency here may not be typical).

SMILES	CapD inh	AID504770
FC(F)(F)c1cnc(N/N=C/c2ccc(Cl)cc2Cl)c(Cl)c1	0.93	·
COC(=O)c1cccc(S(=O)(=O)N2CCCCC2)c1	-0.165	-0.95
O=C(COC(=O)c1ccccc1N1C(=O)C2C3C=CC(C3)C2C1=O)c1ccc(Cl)cc1 (centres undefined)	-0.415	·
Cc1cc(-c2nc(-c3ccc(C(F)(F)F)cc3)no2)no1	-0.565	1.1
COc1cc(OC)nc(-c2cccc(NC(=O)C(c3ccccc3)c3ccccc3)c2)n1	-0.22	·
Cc1cc(=O)[nH]c2c1c(C)nn2C(C)(C)C	-0.445	0.6
COc1cccc2c1NC(C)(C)C=C2C	115	-1.05
CC(C)CN(CC(C)C)C(=O)COc1ccc(C(C)(C)C)cc1	0.155	-0.2
CC1(C)OC(=O)N(CCCC(=O)O)C1(C)O (centres undefined)	0.25	-0.6
CCN1CCN(Cc2ccc3cccnc3c2O)CC1	-0.39	0.2
O=c1cc(CSc2cccc3cccnc23)c2ccc(O)cc2o1	0.365	0.05
Cc1ccc(Cl)cc1N1CCN(C(=O)CCN2C(=S)NC(C)(C)CC2C)CC1 (centres undefined)	-0.59	1.05
CC(C)(C)c1ccc(C(=O)Nc2ccc(NC(=O)c3ccccc3F)cc2)cc1	-0.36	0.4
CCN1CCN(Cc2ccc(NC(=O)c3cn(-c4cccc(OC)c4)c(=O)c4ccccc34)cc2)CC1	0.295	-1.1
O=C(OCCN1C(=O)C2C3c4ccccc4C(c4ccccc43)C2C1=O)c1ccccc1 (centres undefined)	-0.13	·
N#Cc1cccc(NC(=O)c2cc3c(s2)-c2ccccc2OC3)c1	82.6	-0.6
CCCN(Cc1nnc(-c2ccccc2Cl)o1)C(=O)c1cccc(S(=O)(=O)N(C)C)c1	·	-1.25
Cc1ccc(S(=O)(=O)NCC(O)Cn2c3ccccc3c3ccccc32)cc1 (centres undefined)	0.16	-0.05
CCCn1c(CSCc2ccccc2F)nc2cc(S(=O)(=O)N3CCOCC3)ccc21	·	-0.3
CCOC(=O)C1CCN(C(=O)CN(c2cc(Cl)ccc2OC)S(C)(=O)=O)CC1	·	-0.3
COc1cc(C(=O)NNC(=O)Cc2nc(-c3ccccc3)oc2C)nc2ccccc12	0.49	·
Cn1c(=O)[nH]c(=O)c2[nH]c(Cc3ccccc3)nc21	2.1	-0.1
NC(=O)CN1C(=O)C(O)(CC(=O)/C=C\c2ccccc2)c2ccccc21 (centres undefined)	·	1.35
CC(=O)Nc1ccc(NS(=O)(=O)c2ccc3c(c2)CN(C(=O)C(F)(F)F)CC3)cc1	-0.995	·
CC1(C)C(=O)C2(C(=O)O)CCC1C2 (centres undefined)	·	-1.35
O=C(Nc1ccc(Oc2ccc(Cl)c3ccccc23)c(Cl)c1)c1cc(Cl)cc(Cl)c1O	71.5	·
N#Cc1c(N)nc(Sc2ccc(Cl)cc2)c(C#N)c1-c1ccco1	2.15	-0.1
FC(F)(F)c1ccc(-c2csc(-c3ccc(-c4csnn4)cc3)n2)cc1	11.3	0.7
Cc1ccc(S(=O)(=O)Nc2ccc3c(c2)OCO3)cc1C(=O)N1CCOCC1	·	-1.2
COc1cc(/C=C2/C(=O)N(c3ccccc3)N=C2C)ccc1OCCOCCOc1ccc(C)cc1	0.65	·
C/[N+]([O-])=C/c1c(OCc2ccc(Cl)cc2Cl)ccc2ccccc12	0.115	·
O=C(NCCc1ccccc1)c1cc2cccc3c2n(c1=O)CC3	5.64	·
O=C(Nc1ccc(Cl)cc1Cl)ONC1=NCCCCC1	·	-1.15
O=C(CSCc1ccccc1)Nc1ccc(-c2nc3cccnc3s2)cc1	-0.495	1.55
O=C(NC1CCN(Cc2ccccc2)C1)OCCc1cccc2ccccc12 (centres undefined)	0.275	·
N#Cc1c2c(c(-c3ccccc3)[nH]c1=O)CCCC2	0.635	1.6
COC(=O)C1=C(Nc2ccc(F)c(Cl)c2)CSC1	-0.235	-0.1
Cc1ccccc1Nc1nc(N)nc(CN(C)Cc2ccc3c(c2)OCCO3)n1	·	0.1
COC(=O)c1sccc1-c1ccc(COC(=O)c2ccc(Cl)cc2)o1	18.1	·
CCCCC(=O)N1c2ccc(OCC)cc2C(=C2SC(C(=O)OC)=C(C(=O)OC)S2)C(=S)C1(C)C	7.69	·
Cc1ccc(N2C(=O)C(N3C(=O)c4ccccc4C3=O)C2c2ccc(N(C)C)cc2)cc1C (centres undefined)	-0.03	·
CC1(C)CC(=O)C(Sc2ccc(Cl)cc2)=C(N2CCOCC2)C1	·	0.05
COc1cccc2c1C(=O)c1c(O)c3c(c(O)c1C2=O)C[C@@](O)(C(=O)CO)C[C@@H]3O[C@H]1C[C@H](N)[C@H](O)[C@H](C)O1	0.06	·
O=C(CSc1nnc(-c2ccncc2)o1)NCc1ccccc1	0.025	0
CCn1c(COc2cccc3cccnc23)nnc1SCC(=O)OC	0.585	-0.25

Entries of single compounds from above. Values in the order: CapD inh, AID504770
CCCn1c(CSCc2ccccc2F)nc2cc(S(=O)(=O)N3CCOCC3)ccc21 across the screens: ·, -0.3
O=C(Nc1ccc(Oc2ccc(Cl)c3ccccc23)c(Cl)c1)c1cc(Cl)cc(Cl)c1O across the screens: 71.5, ·
O=C(CSCc1ccccc1)Nc1ccc(-c2nc3cccnc3s2)cc1 across the screens: -0.495, 1.55

Further compounds follow:
SMILES	CapD inh	AID504770
CN(Cc1ccccc1NCC(=O)NC1CCCC1)C1CCCCC1	·	-0.05
COc1cc(C(=O)N2CCc3ccccc32)cc(OC)c1OC	·	1.25
CC(=O)N1CC(c2ccccc2)CC1=O (centres undefined)	-0.245	-1
O=[N+]([O-])c1ccc(CSc2nc(-c3ccccc3)c(-c3ccccc3)[nH]2)cc1	0.94	·
COC(=O)c1cnc(N2CCCN(C(=O)NC3CCCCC3)CC2)nc1C(F)(F)F	0.9	-1.7
Cc1nc(-c2ccccn2)sc1C(=O)CC(c1ccccc1)C(C#N)C#N (centres undefined)	0.725	·
Nc1nonc1C(=Nc1ccccc1)NOCc1ccc(Cl)cc1Cl	-1.06	·
COc1ccc(CNC(=O)c2ccc(N(C)S(C)(=O)=O)cc2)cc1	0.605	0.25
Cc1ccc(S(=O)(=O)NCc2ccc3c(c2)cc(C)n3C)cc1	-0.045	0.1
Cc1ccc(C(=O)OC2CC(n3cc(C)c(=O)[nH]c3=O)OC2CO)cc1 (centres undefined)	0.36	·
Clc1ccc2oc(-c3ccccc3)cc(=NCCN3CCOCC3)c2c1	-0.25	0
N#CC1=C(N)Oc2n[nH]c(-c3ccc4c(c3)OCO4)c2C1c1ccc(C(F)(F)F)cc1 (centres undefined)	-0.14	·
CCOC(=O)C1=C(c2ccccc2)N=C2SCC(=O)N2C1c1ccc(N(C)C)cc1 (centres undefined)	-0.155	·
Cc1c(C(=O)OC(C)C)c2cc(O)ccc2n1-c1ccccc1	2.63	0.15
COc1cc(OC)c(C(=S)N2CCN(CCO)CC2)cc1OC	-0.975	-0.1
CCn1cc(C(=O)N(Cc2ccc(N(C)C)cc2)Cc2ccco2)c(=O)c2ccc(C)nc21	-0.905	0.8
COc1ccccc1OCC(=O)Nn1c(=S)[nH]c2ncccc2c1=O	-0.32	0.7
COC(CNC(=O)c1ccc(-n2c(C)cc3c2CCCC3)cc1)OC	0.915	-0.05
Cc1ccc2c(c1)-c1c(sn(-c3ccc(Br)cc3)c1=S)C(C)(C)N2Cc1ccccc1	-0.73	·
O=C(Cc1ccccc1)N1N=C(c2ccc([N+](=O)[O-])cc2)CC1(O)C(F)(F)F (centres undefined)	-1.43	·
CNC(=O)c1ccc(/C=C2/C(=O)C3CCN2CC3)cc1	-0.61	0
O=C(Nc1sc2c(c1C(=O)N1CCOCC1)CCCCC2)c1ccccc1	-0.31	1.45
CCCc1[nH]nc2c1C(c1ccc(OC(=O)N3CCOCC3)c(OC)c1)C(C#N)=C(N)O2 (centres undefined)	0.23	·
O=C(Nc1nnc(-c2ccccc2)o1)c1sc2ccccc2c1Cl	-1.1	2.25
CC(C)C(C(=O)OC1CSCC1NC(=O)c1ccccc1)N1C(=O)c2ccccc2C1=O (centres undefined)	-0.025	-0.15
O=C1CC(c2ccc(S(=O)(=O)N3CCOC(COc4ccccc4)C3)cc2)CN1 (centres undefined)	0.99	0.7
CC1CC(N(C(=O)C(C)C)c2ccccc2)c2ccccc2N1 (centres undefined)	-0.22	-0.95
Cc1cc(Nc2cccc(C(F)(F)F)c2)nc2ccc(NC(=O)Cc3cccs3)cc12	79	0
CC1=C2C(=NCCN1)C(=O)N(c1ccc(F)cc1)C2c1ccccn1 (centres undefined)	-0.76	0.35
COc1ccc(N2CCN(C(=O)OCC3CCCN3C(=O)c3ccccc3OC)CC2C)cc1 (centres undefined)	-0.01	·
CCOC(=O)c1nc(NNC(C)=O)sc1C	-0.225	-0.05
Cc1nc(-c2c(C(F)(F)F)noc2-c2ccc(O)cc2O)cs1	0.345	-1.15
Cc1csc(CC(N)=O)n1	0.615	-0.35
CCOC(=O)c1ccc(N2C(=O)CSCC2=O)cc1	0.84	1.5
COc1ccc(CCNC(=O)COc2ccc3c(=O)c(-c4ccccc4)coc3c2)cc1OC	60.4	0.4
NC(=O)C1CCN(CC(=O)N2c3ccccc3CCc3ccccc32)CC1	·	0.4
OCCNC(=S)Nc1ccccc1	-0.555	-0.55&-0.45
NCCc1ccc(OC(F)F)cc1	·	-0.2
Cc1ccc2c(c1)c(=O)c1ccccc1n2CC(=O)N1CCN(c2ccccc2)CC1	1.7	·
O=C(NCCc1c[nH]c2ccc(Cl)cc12)OCc1cccnc1	-0.825	·
CCC(=O)Nc1ccc(N2CCCCC2)cc1	·	-0.5
CCN(CC)CCNC(=O)c1sc2ncnc(N3CCN(c4ccccc4F)CC3)c2c1C	-0.695	·
COc1cc(S(=O)(=O)N2CCOCC2)cc(C(=O)OCC(=O)N2CCCc3ccccc32)c1OC	·	-0.8
COc1ccc(CN2CCN(C(=O)C3CCN(S(=O)(=O)c4cnc[nH]4)CC3)CC2)c(OC)c1OC	-0.425	-0.7
NNC(=O)CNC(=O)c1ccccc1	1.12	-0.4

The last four entries of the part above lead into the next:
SMILES	CapD inh	AID504770
CCN(CC)CCNC(=O)c1sc2ncnc(N3CCN(c4ccccc4F)CC3)c2c1C	-0.695	·
COc1cc(S(=O)(=O)N2CCOCC2)cc(C(=O)OCC(=O)N2CCCc3ccccc32)c1OC	·	-0.8
COc1ccc(CN2CCN(C(=O)C3CCN(S(=O)(=O)c4cnc[nH]4)CC3)CC2)c(OC)c1OC	-0.425	-0.7
NNC(=O)CNC(=O)c1ccccc1	1.12	-0.4
CNC(=O)CN1C(=O)CSc2ncccc21	-0.97	-0.15
Cc1cc(C)cc(NS(=O)(=O)c2ccc3c(c2)c(=O)n(C)c(=O)n3C)c1	-0.84	-0.6
CC1CCCC(C)N1C(=O)CN1CCC(N2CCCCC2)CC1 (centres undefined)	·	0.85
O=C(NCC1CN(Cc2ccccc2)CCO1)c1ccc(N2CCOCC2)nc1 (centres undefined)	0.855	-0.15
COc1cc(C=C2C(=O)NC(=O)NC2=O)ccc1OCc1ccc(Cl)cc1Cl	-0.235	·
CC(=O)[C@H]1[C@H](c2cccs2)C(C#N)(C#N)[C@@H]2c3ccccc3C=CN21	6.26	·
CNC(=O)N1CCn2cccc2C1C(C)C (centres undefined)	1.09	-0.4
COc1ccc(CCNS(=O)(=O)c2cc(Cl)c(Cl)cc2Cl)cc1OC	0.345	·
COc1ccc2nc3sc(C(=O)N(C)c4cccc(C(F)(F)F)c4)cc3cc2c1	0.325	-0.2
COCc1cc(C)nc2sc3c(=O)[nH]nnc3c12	0.15	·
COc1ccc(N=c2scc(-c3ccc(O)c(C(N)=O)c3)n2CC2CCCO2)cc1 (centres undefined)	·	-3.55
CC(C)S(=O)(=O)c1csc(C(=O)OCC(=O)C(C)(C)C)c1N	48.4	0.55
COc1cc(C2Nc3ccc4ccccc4c3C3=C2C(=O)CC(c2ccccc2)C3)ccc1O (centres undefined)	2.26	·
Cc1cccc(C(=O)N2CCN(c3ccc(N4CCCCCC4)nn3)CC2)c1	·	-0.8
CC(=O)NCCc1nc2ccccc2n1Cc1ccccc1	0.01	1.85
Cc1nc(C(F)(F)F)ccc1C(=O)NC1CCCc2ccccc21 (centres undefined)	0.88	-0.1
N#CC1=C(N)OC(C2CC2)=C(C#N)C1c1ccccc1Cl (centres undefined)	0.135	-0.65
C=CCNC(=S)Nc1ccn(Cc2ccccc2C)n1	-0.535	-0.65
O=C(Nc1c(-c2cccs2)nc2ccccn12)c1c(F)cccc1F	-0.1	-0.5
OC(COc1ccc(C23CC4CC(CC(C4)C2)C3)cc1)CN1CCCCC1 (centres undefined)	-0.155	·
O=C(COC(=O)c1ccccc1OCc1ccccc1)c1ccc(F)cc1	0.22	0.35
Cc1ccc(NC(=S)NC(C)(C)C)c(C)c1	-0.215	1
NCc1csc2ccccc12	-0.895	·
S=C(Nc1ccc(Cl)cc1Cl)NC(Cn1ccnc1)c1ccccc1 (centres undefined)	0.405	-0.65
CC(Sc1nc(N)cc(=O)[nH]1)C(=O)NCC(=O)Nc1ccc(F)c(F)c1F (centres undefined)	·	-0.5
S=C1Nc2ccccc2C2CC=NN12 (centres undefined)	·	1.45
COc1ccccc1CNC(=S)N(C)C	-0.545	-0.35

Fetched one by one from the entries so far (seven):
SMILES	CapD inh	AID504770
O=C(Nc1c(-c2cccs2)nc2ccccn12)c1c(F)cccc1F	-0.1	-0.5
Cc1nc(C(F)(F)F)ccc1C(=O)NC1CCCc2ccccc21 (centres undefined)	0.88	-0.1
Cc1ccc(NC(=S)NC(C)(C)C)c(C)c1	-0.215	1
COc1ccccc1CNC(=S)N(C)C	-0.545	-0.35
S=C(Nc1ccc(Cl)cc1Cl)NC(Cn1ccnc1)c1ccccc1 (centres undefined)	0.405	-0.65
OC(COc1ccc(C23CC4CC(CC(C4)C2)C3)cc1)CN1CCCCC1 (centres undefined)	-0.155	·
O=C(COC(=O)c1ccccc1OCc1ccccc1)c1ccc(F)cc1	0.22	0.35
